Bioassay records: PubChem, National Center for Advancing Translational Sciences (NCATS)
Marburg entry inh – Marburg virus entry inhibition; actives 1.8% (n = 300,000); Potency, µM (titrated, usually from 37.8 µM), inactives show at the highest dose activity change, negative = inhibition, most hits filed as inhibitors; Marburg virus pseudotyped entry inhibition, cell reporter; control for the full effect not named in the record; about a third of the inactives were read at about 46 µM; AID 540276; active = well fitted inhibition curve with a large enough effect; inconclusive = small, poorly fitted or top-dose-only effect, or effect the other way; inactive = flat fitted curve, though single readings scatter; tested in HEK293 cells; about a fifth of its hits are not listed in these tables; also: % is scaled to controls: 0 for no effect and ±100 for the full control effect; luciferase read-out
Cruzain inh noDet – blocks cruzain activity in detergent-free assay; P25779; purified cruzain, Z-FR-AMC fluorescence, no detergent; Potency, µM, without a hit: max response, negative = inhibition, hits mostly inhibitors; actives 2.3% (n = 200,000); active = well fitted curve in the direction sought with a large enough effect; inconclusive = small, poorly fitted or top-dose-only effect, or another doubt; inactive = no such curve, though single readings can be large; an effect the other way counts as inactive or inconclusive;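 also: plate controls were enzyme without inhibitor for no effect and buffer without enzyme for full effect; nearly all actives have a fitted effect of over 40% in size; top concentration of the series not given in the record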
Target sequence (P25779 123-467 limits assumed): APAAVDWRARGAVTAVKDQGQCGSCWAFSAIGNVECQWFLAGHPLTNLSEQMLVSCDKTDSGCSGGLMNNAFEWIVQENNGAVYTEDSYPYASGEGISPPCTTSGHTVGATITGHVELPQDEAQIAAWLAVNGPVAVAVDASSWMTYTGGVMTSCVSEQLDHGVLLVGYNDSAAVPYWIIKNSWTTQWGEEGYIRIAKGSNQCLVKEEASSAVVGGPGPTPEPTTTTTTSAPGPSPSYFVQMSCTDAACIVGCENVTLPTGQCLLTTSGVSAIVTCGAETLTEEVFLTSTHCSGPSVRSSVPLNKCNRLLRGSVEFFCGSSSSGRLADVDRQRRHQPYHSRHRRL
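Detergent-free condition (0.00005% Triton X-100) in acetate buffer pH 5.5 with DTT. 1.5 nM enzyme and compound were pre-mixed 15 min, then 2 uM Z-FR-AMC substrate added; reaction progress from fluorescence change between first and third reads (60 s).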
RE007 growth inh – less growth of the S. pombe RE007 Vpr strain. S. pombe RE007 Vpr strain, BacTiter-Glo ATP luminescence, 24 h; control for the full effect not named in the record. Potency, µM (series often up to 92.2 µM), without a hit: top-dose activity change, negative = less growth. actives 0.21% (n = 360,000); active = well fitted falling curve with a large enough effect; inconclusive = small, poorly fitted or top-dose-only effect; inactive = no such curve, though single readings can be large or run the other way;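 also: % is scaled to controls: 0 for no effect and ±100 for the full control effect; nearly all actives have a fitted effect of over 50% in size; the assay follows cell death caused by Vpr and the record does not say whether a fall means rescue or toxicity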
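Fission yeast RE007 carrying one integrated HIV-1 vpr copy, seeded at OD 0.01 in PMG+AL medium with 23 nL pinned compound. Grown 24 h at 30 degrees; viability read by BacTiter-Glo luminescence after 5 min.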
Lassa entry inh – blocks Lassa virus binding to or entry into cells. Lassa virus pseudotype entry inhibition, cell reporter; control for the full effect not named in the record. Potency, µM (doses to about 37.9 µM), for inactives: at the top dose activity change, negative = inhibition, hits mostly inhibitors. actives 1.2% (n = 300,000). AID 540256; active means well fitted inhibition curve with a large enough effect; inconclusive means small, poorly fitted or top-dose-only effect, or effect the other way; inactive means flat fitted curve, though single readings scatter; tested in HEK293 cells; also: % is scaled to controls: 0 for no effect and ±100 for the full control effect; nearly all actives have a fitted effect of over 50% in size; luciferase read-out
SARS PLP yeast – SARS-CoV PLP inhibition in yeast; S. cerevisiae expressing SARS-CoV PLpro, growth rescue; control for the full effect not named in the record; Potency, µM (titrated, usually from 32.9 µM), inactives show top-dose activity, positive = growth rescue; actives 0.19% (n = 330,000); AID 485353; also: 0% is about no effect; nearly all actives have a fitted effect of over 55% in size; growth read by luminescence after 48 h
NS1 function inh – influenza NS1 inhibition. S. cerevisiae slowed by influenza A NS1, growth recovery by OD600. Potency, µM (series often up to 46.1 µM), inactives show at the highest dose activity, positive = more growth. AID 2326. actives 0.4% (n = 270,000); also: actives are rising curves; nearly all actives have a fitted effect of over 50% in size
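Recovery from NS1-induced slow growth read by OD600 in budding yeast switched to galactose assay medium (pH 6.0, -URA) at 1:100 dilution. Compound 23 nl per well; the matching strain lacking NS1 serves as control.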
Cruzain inh Det – blocks cruzain activity in presence of Triton detergent. AID 1478. purified cruzain, Z-FR-AMC fluorescence, 0.01% Triton. P25779. Potency, µM, without a hit: max response, negative = inhibition, usual class: inhibitors. actives 0.43% (n = 200,000); active = well fitted curve in the direction sought with a large enough effect; inconclusive = small, poorly fitted or top-dose-only effect, or another doubt; inactive = no such curve, though single readings can be large; an effect the other way counts as inactive or inconclusive;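 also: plate controls were neutral wells for no effect and buffer without enzyme for full effect; nearly all actives have a fitted effect of over 40% in size; top concentration of the series not given in the record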
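Steps: dispense cruzain (1.5 nM final) in acetate buffer pH 5.5 with DTT and 0.01% Triton X-100; pin-transfer compounds; incubate 15 min RT; add Z-FR-AMC (2 uM final); read fluorescence every 30 s, using the 60 s intensity change.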
2A StopGo – lowers the luciferase signal of an FMDV 2A StopGo reporter. actives 1.2% (n = 410,000). Potency, µM (doses to about 57.9 µM), for inactives: at the top dose signal change, negative = less light. human cells with a luciferase reporter of 2A StopGo recoding; control for the full effect not named in the record; active = well fitted falling curve with a large enough effect; inconclusive = small, poorly fitted or top-dose-only effect; inactive = no such curve, though single readings can be large or run the other way; tested in HEK293T cells; also: % is scaled to controls: 0 for no effect and ±100 for the full control effect; nearly all actives have a fitted effect of over 45% in size; luciferase light after 4 h
* = called active by the depositor; ? = inconclusive; . = no result given; [ ] = dose if it differs, or a comment. Unless noted, calls follow the shape of the dose curve; as a rule, active means well fitted rising curve with a large enough effect; inconclusive means small, poorly fitted or top-dose-only effect; inactive means no such curve, though single readings can be large or run the other way. Potency is read from the fitted curve at half-maximal effect.

SMILES	Marburg entry inh	Cruzain inh noDet	RE007 growth inh	Lassa entry inh	SARS PLP yeast	NS1 function inh	Cruzain inh Det	2A StopGo
Cc1nonc1CC(=O)NC1CCCc2c1cnn2-c1ccc(F)cc1F (centres undefined)	.	.	5%	.	-2%	4%	.	-20%
O=C(COC(=O)c1ccc(F)c(S(=O)(=O)N2CCOCC2)c1)NCc1ccc(F)cc1	?	.	-14%	-8%	-6%	.	.	0%
CCOC(=O)C(C(=O)OCC)C(Nc1ccccc1)c1ccccc1 (centres undefined)	-34%	1%	.	-11%	12%	-11%	-0.5%	0%
COc1ccc(-c2nn3c(-c4ccco4)nnc3s2)cc1OC	-15%	5%	-12%	-12%	-3%	-36%	-3.8%	4%
CCCCCCOC(=O)C(C#N)c1nc2ccccc2nc1N1CCN(C)CC1 (centres undefined)	?	4%	17%	?	?	-36%	-1.7%	-27%
COCc1cc(C)nc(SCc2ccc(F)cc2)c1C#N	-2%	.	0%	15%	-5%	-17%	.	-7%
Cc1nnc(NC(=O)CSc2nc3c([nH]c4ccccc43)c(=O)n2-c2cccc(Cl)c2)s1	.	2%	.	-12%[46.1 µM]	.	.	-1.2%	-12%
O=C1COc2ccc(S(=O)(=O)Nc3ccc4c(c3)OCO4)cc2N1	?	.	-2%	?	2%	.	.	47%[activator]
COc1cc(C2CC(=O)N(c3ccc(C)cc3)C(=O)C2)cc(OC)c1OC	?	.	28%	?	3%	-4%	.	-1%
COC(=O)[C@@]1(Cc2ccc(F)cc2)[C@H]2c3cc(C(=O)N4CCCC4)n(Cc4ccc(OC(F)(F)F)cc4)c3C[C@H]2CN1C(=O)c1ccccc1	.	?	-1%	.	.	.	-1.2%	?
Clc1ccc(Nc2nc(-c3ccccc3)c3cc(Cl)ccc3n2)cc1	.	3%	.	4%[46.1 µM]	.	.	-0.2%	-19%
CCN(CC)CCNC(=S)Nc1ccc2nc(N3CCN(C)CC3)cc(C)c2c1	?	.	-14%	?	1%	6%	.	-4%
O=c1oc2ccc(Br)cc2cc1S(=O)(=O)c1ccc(F)cc1	-6%	3%	23%	-19%	-13%	1%	-5.7%	28µM*
CS(=O)(=O)N(CC(=O)NCC1CCCO1)c1cc(Cl)cc(Cl)c1 (centres undefined)	-4%	8%	10%	15%	-1%	1%	2.4%	.
CS(=O)(=O)c1ccc(N)cc1	.	-6%	-5%	.	4%	?	-4.7%	-17%
COc1cccc(NC(=O)NCC2CCN(Cc3ccc(F)cc3)CC2)c1	.	.	-14%	.	3%	1%	.	-15%
CCN(CC)C(=O)CSc1nnc2sc3ccccc3n12	11%	13%	17%	9%	1%	-1%	-0.7%	0%
CCOC(=O)c1ccc(NC(=O)N2CCN(Cc3cccc(F)c3)CC2)cc1	6%	9%	1%	-5%	0%	-30%	5.3%	-16%
Cc1cccn2c(=O)c(C(=O)NC3CC(C)CC(C)(C)C3)c(O)nc12 (centres undefined)	2%[46.1 µM]	.	-12%	22%	-4%	.	.	-18%
N#CCCn1cc(/C=N/NC(N)=S)c(-c2ccccc2)n1	?	.	-3%	9%[46.1 µM]	1%	.	.	2%
COc1ccc(C(=O)N=C2CCC(C#N)=C3c4cc(OC)c(OC)cc4CCN23)cc1	6%	-4%	-16%	-11%	1%	-2%	-2.3%	-12%
NC(=NCCc1ccc(Cl)cc1)NS(=O)(=O)c1ccc(F)cc1	-23%	15%	8%	0%	-27%	9%	-2.2%	?
O=C(NCc1cccnc1)C(=O)Nc1ccc2c(c1)OCO2	-25%[46.1 µM]	.	7%	?	1%	.	.	45%[activator]
CCCCCCCC(=O)N/N=C/c1ccc(Br)cc1	?	3%	-1%	?	-5%	1%	-12%	18%
CC1CN(C(=S)NC(=O)c2ccc(Cl)cc2)CC(C)O1 (centres undefined)	17%[46.1 µM]	.	-10%	2%[46.1 µM]	9%	3%	.	-12%
Cc1ccc(C(=O)NNC(=O)c2ccc(NC(=O)C(C)(C)C)cc2)cc1	.	.	1%	.	-1%	17%	.	16%
CC(=O)c1cccc(NC(=O)CSc2nc(=O)n(CCN3CCOCC3)c3c2CCCC3)c1	-14%[46.1 µM]	.	-20%	-1%	1%	.	.	-8%
NCCSc1c(-c2ccccc2)[nH]c2ccccc12	.	.	18%	.	6%	1%	.	-15%
CCN(CC(=O)Nc1c(F)cccc1F)C(=O)CNC(=O)c1ccco1	-9%[46.1 µM]	.	7%	2%	-2%	.	.	-1%
O=C1CS/C(=N\C(=O)N2c3ccccc3Sc3ccccc32)N1	-9%	?	1%	?	-5%	11%	-5.4%	-3%
O=[N+]([O-])/C=C1/NCCN1Cc1ccc(Cl)nc1	-4%[46.1 µM]	.	1%	5%	2%	6%	.	1%
CCOC(=O)c1c(C)[nH]c(C)c1C(=O)COC(=O)C1CCCN1S(=O)(=O)c1ccccc1F (centres undefined)	5%	?	4%	?	-4%	-6%	0.1%	-4%
CC/C(=N\NC(=S)Nc1ccccc1)c1c(O)[nH]c(=O)[nH]c1=O	.	.	9%	.	0%	0%	.	-17%
COc1ccc(CNc2nc3ccc(C)cc3s2)c(OC)c1OC	.	.	?	.	-10%	-50%	.	-6%
O=C1CCCN1C(=O)CCC(=O)N1CCCC1=O	?	-6%	3%	2%	6%	5%	-3.3%	-18%
CCCCN(CC)C(=O)CSc1nc2n[nH]c(C)c2c(=N)n1-c1cccc(OC)c1	.	?	.	?	.	.	-13%	-20%
COc1ccc2oc(C(=O)NNC(=O)c3ccc(F)cc3)c(C)c2c1	4%	.	-22%	10%	-3%	.	.	1%
Cc1cc(C)nc(SCCC(=O)Nc2ccccc2)n1	4%	13%	-20%	13%	-7%	-7%	-1.7%	.
NNC(=O)c1ccccc1OCc1ccccc1	.	.	0%	.	0%	7%	.	13%
CCc1ccc(N2C(=O)CC(NNc3nc4ccccc4s3)C2=O)cc1 (centres undefined)	?	?	-6%	-3%	-13%	4%	-2.7%	-14%
COc1ccc2nc(C)cc(NCc3ccc(F)cc3)c2c1	?	.	-12%	?	1%	-14%	.	-6%
Cc1onc(-c2ccccc2Cl)c1C(=O)Nc1cccc(-c2nc3ncccn3c2C)c1	-23%	?	-11%	-15%[14.3 µM]	-2%	-13%	3.5%	-25%
CCC12CC3CC(C1)CC(C(=O)O)(C3)C2	?	5%	-15%	2%	-7%	-144%	5.5%	-15%
CCc1c(C)nc2[nH]nc(-c3ccccc3C)n2c1=O	27%	-3%	1%	7%	-6%	1%	2.4%	10%
COc1cc(C(=O)NCC(=O)Nc2c(C)cccc2C)ccc1OCC(=O)N1CCOCC1	-22%	.	0%	1%	1%	.	.	-15%
Cc1ccc(OCCC(=O)N(Cc2ccccc2)c2c(N)n(Cc3ccccc3)c(=O)[nH]c2=O)cc1	?	.	-4%	?	-1%	.	.	-24%
COc1ccc(NC(=O)C2CCCN(S(C)(=O)=O)C2)cc1 (centres undefined)	-15%[46.1 µM]	.	-9%	-1%[46.1 µM]	5%	-15%	.	-8%
Cn1cc(S(=O)(=O)N2CCCC2)cc1C(=O)N1CCN(c2ccccc2)CC1	.	.	-2%	.	-6%	9%	.	-2%
C=CCn1c(SCC(=O)N2c3ccccc3Sc3ccccc32)nnc1-c1ccco1	?	.	6%	-16%	-7%	1%	.	-9%
COc1ccc(/C=N/NC(=O)c2cccc(C(F)(F)F)c2)cc1	-5%	.	-1%	21%	0%	.	.	3%
c1ccc2c(-c3nc(C4CCCCC4)no3)cc(-c3ccncc3)nc2c1	?	-4%	-13%	-16%	-4%	-61%	1.0%	-21%
CCOc1ccc(S(=O)(=O)N2CCOCC2)cc1NC(=O)C1CCC1	-3%[46.1 µM]	.	4%	3%[46.1 µM]	-2%	7%	.	14%
CCN1C(=O)c2ccccc2Sc2ccc(NC(=O)Cc3ccc(OC)c(OC)c3)cc21	.	?	.	?	.	.	-3.1%	-18%
Cc1nc(N(C)C)c2sc(=S)n(C)c2n1	.	8%	1%	.	-6%	-14%	-1.0%	-29%
N#Cc1cccc(CN2C=NS(=O)(=O)c3ccccc32)c1	22%[46.1 µM]	.	-2%	-2%[46.1 µM]	1%	-3%	.	-6%
COc1cc(CN2CCCC(CO)(Cc3ccccc3C)C2)cc2c1OCO2 (centres undefined)	?	.	-9%	?	1%	1%	.	-23%
COc1cccc(NC(=O)Cn2c3ccc(F)cc3c3nc4n(c(=O)c32)CCS4)c1	-26%[46.1 µM]	.	5%	?	0%	-5%	.	-22%
COc1ccc2c(c1)CC/C2=N\OC(=O)c1ccccc1C	?	.	-9%	-2%	-16%	.	.	2%
CCS(=O)(=O)N1CCc2cc(C(=O)Nc3cc(C)cc(C)c3)ccc21	-8%[46.1 µM]	5%	.	1%[46.1 µM]	.	.	-3.2%	-12%
O=C1Nc2ccccc2N(O)N1c1ccc(Cl)cc1	21%[46.1 µM]	.	-7%	-7%	1%	2%	.	0%

(more compounds)
SMILES	Marburg entry inh	Cruzain inh noDet	RE007 growth inh	Lassa entry inh	SARS PLP yeast	NS1 function inh	Cruzain inh Det	2A StopGo
CS(=O)(=O)c1ccc2nc(NC(=O)Oc3ccccc3)sc2c1	23%	-4%	-7%	5%	-1%	14%	8.8%	17%
COC(=O)N=Nc1c(O)[nH]c2ccc(Br)cc12	-14%	.	-12%	-9%	-2%	-3%	.	0%
CC(=O)Nc1ccccc1C(=O)OCC(=O)c1ccc2c(c1)OCCO2	?	2%	-6%	?	6%	9%	-0.2%	36%[activator]
Cc1cc(C)nc(SCc2ccc(C(=O)NNC(=O)Nc3cccc(Cl)c3)cc2)n1	?	3%	4%	11µM*	-3%	?	0.2%	8%
Cc1ccc(C)c2sc(N3CCN(C(=O)c4ccco4)CC3)nc12	.	6%	.	?	.	.	-9.8%	-21%
O=C(COC(=O)CNC(=O)c1ccc(Cl)cc1Cl)NCc1ccco1	2.8µM*	.	18%	?	-1%	.	.	7%
CCC12CCC3c4ccc(O)cc4CCC3C1CC(O)C2O (centres undefined)	3%	.	10%	-29%	.	.	.	-10%
COc1ccc(-c2nc(CS(=O)(=O)CC(=O)NCCc3cc(OC)ccc3OC)c(C)o2)cc1	?	?	3%	-10%	3%	3%	-3.9%	9%
